HSV augment: enhancers of HSV replication in host cells, fold increase, host cell viability; maximum fold increase; 220,000 compounds, 0.005% hits; HSV replication augmentation in cells;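 active = peak rise of 1.5-fold or more in the series; tested in PC3 cells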;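 note: first round at 10 µM; read as green reporter fluorescence; hits show the peak of a series up to 25 µM; 1 = signal of infected wells without compound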
PKD1 kinase inh: inhibitors of human PKD1 kinase, biochemical, fluorescence polarization; inhibition, %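 (about 10 µM by stock and volumes)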; AID 797, 2007; PKD1 kinase fluorescence polarization assay; 200,000 compounds, 0.056% hits;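 active = inhibition of 50% or more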;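 note: controls were vehicle for no effect and a reference inhibitor for full effect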
Target sequence (Q15139 whole entry, looked up): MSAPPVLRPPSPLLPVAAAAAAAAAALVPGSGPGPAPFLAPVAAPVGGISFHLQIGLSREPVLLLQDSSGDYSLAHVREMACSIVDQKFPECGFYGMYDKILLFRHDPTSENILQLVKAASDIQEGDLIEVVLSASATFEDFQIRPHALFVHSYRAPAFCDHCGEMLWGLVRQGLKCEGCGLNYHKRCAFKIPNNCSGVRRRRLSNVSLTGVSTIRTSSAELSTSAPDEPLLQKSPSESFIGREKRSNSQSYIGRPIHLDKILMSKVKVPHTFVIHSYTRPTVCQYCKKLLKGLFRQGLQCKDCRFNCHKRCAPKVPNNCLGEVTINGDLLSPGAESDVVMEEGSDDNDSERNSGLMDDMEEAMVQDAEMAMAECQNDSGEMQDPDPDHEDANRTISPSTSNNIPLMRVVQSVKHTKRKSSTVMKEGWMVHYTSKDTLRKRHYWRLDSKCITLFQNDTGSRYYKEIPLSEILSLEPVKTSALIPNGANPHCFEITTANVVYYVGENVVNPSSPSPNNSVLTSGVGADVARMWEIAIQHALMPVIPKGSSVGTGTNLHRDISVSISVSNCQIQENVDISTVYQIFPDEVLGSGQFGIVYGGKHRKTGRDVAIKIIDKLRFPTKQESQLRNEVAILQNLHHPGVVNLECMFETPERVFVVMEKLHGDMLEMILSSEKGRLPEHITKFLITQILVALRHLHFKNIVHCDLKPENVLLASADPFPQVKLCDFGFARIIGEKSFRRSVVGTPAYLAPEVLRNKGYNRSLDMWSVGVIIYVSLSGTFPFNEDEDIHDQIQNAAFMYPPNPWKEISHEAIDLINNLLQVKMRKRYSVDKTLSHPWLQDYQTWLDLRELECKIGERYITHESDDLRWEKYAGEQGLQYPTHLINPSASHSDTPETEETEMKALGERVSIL
RGS16-Gao: modulators of RGS16 binding to Galphao, primary screen, biochemical, human proteins, multiplexed bead flow cytometry; Regulator of G-protein signaling 16 (Homo sapiens) + Guanine nucleotide-binding protein …; bead-based flow cytometry RGS16-Galphao binding, fluorescence; actives lie on both sides; binding response (% of control), % at 10 µM; 220,000 compounds, 0.38% hits; AID 1441, 2008;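 active = below 25% or above 175%, edge rows of some plates excepted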;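 note: Galphao activated by GDP with aluminum fluoride before binding; 100% = wells without compound and 0% = beads without RGS; some results beyond the cut were filed as inactive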
Insulin prom inh: inhibitors of insulin promoter-driven GFP, primary screen, imaging, TRM-6 cells (human fetal islet line), eGFP reporter, cell count; reporter expression induced with tamoxifen; inhibition, % at 2 µM; 130,000 compounds, 0.9% hits; AID 1273, 2008;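 active = inhibition above the mean plus 3 SD, with well images judged a real hit on visual review, cut at about 60% in these data, passing the limit was not always enough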
GALR2 agonist: GALR2 receptor agonists, primary screen, cell-based | Galanin receptor type 2 (Homo sapiens), O43603 | GALR2-expressing cells, agonist activation read-out | activation, %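 (tested at 5 µM)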 | 140,000 compounds, 0.48% hits | AID 803, 2007;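 active = above mean plus 3 SD of all compounds, about 5% in these data, not always enough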;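 note: 0% = vehicle buffer wells and 100% = reference agonist at full effect; tested in CHO reporter cells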
Insulin prom inh cell count: further read-out of Insulin prom inh, marked with its call; normalized cell count, %; measured here: cell count, toxicity; reference of the scale not given here;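 cells exposed to compound for 48 h; stained nuclei by imaging scaled within each plate; lower means fewer cells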
HSV augment primary fold: also measured in HSV augment; calls as there; fold increase; compound at 10 µM; measured here: primary screen fold increase 10 uM; tested in PC3 cells;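 GFP signal in the first replicate; 1 = infected wells without compound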
* marks the source's active call; other numbers are inactive results. Hits appear at their usual frequency; about 1.3% have a hit in one of these screens.

`CCOC(=O)CNC(=O)CNC(=O)c1ccc(OCC(C)C)cc1` gave HSV augment inactive, PKD1 kinase inh 7.5, RGS16-Gao 100.0, GALR2 agonist -1.5 and HSV augment primary fold 0.96.
Cc1ccc(OC(C)C(=O)Nc2ccc(S(=O)(=O)Nc3cc(C)on3)cc2)cc1 (stereo not given) was read as HSV augment inactive, PKD1 kinase inh -6.1, RGS16-Gao 100.9, Insulin prom inh 33.3, GALR2 agonist -2.4, Insulin prom inh cell count 152.7 and HSV augment primary fold 1.03.
c1ccc(-c2ccnc3ncnn23)nc1 was read as HSV augment inactive, PKD1 kinase inh -1.1, RGS16-Gao 95.0, Insulin prom inh 0.0, Insulin prom inh cell count 98.8 and HSV augment primary fold 0.87.
O=C(Nc1ccc2oc(-c3ccncc3)nc2c1)c1ccccc1F was read as HSV augment inactive, PKD1 kinase inh -5.3, RGS16-Gao 106.9, Insulin prom inh -109.1, GALR2 agonist 0.2, Insulin prom inh cell count 63.9 and HSV augment primary fold 1.04.
`COc1ccc(S(=O)(=O)NCC2CCCN(C(=O)CN3CCCCC3)C2)cc1` (stereo not given) gave HSV augment inactive, PKD1 kinase inh -0.9, RGS16-Gao 104.5 and HSV augment primary fold 0.92.
O=C(COc1ccc(/C=C\[N+](=O)[O-])cc1)N1CCOCC1 was read as HSV augment inactive, PKD1 kinase inh -6.4, RGS16-Gao 96.2 and HSV augment primary fold 0.96.
Screening Cc1ccc(Nc2nnc(SCC(=O)Nc3cccnc3Cl)s2)cc1C returned HSV augment inactive, PKD1 kinase inh 7.9, RGS16-Gao 120.1, Insulin prom inh 6.7, GALR2 agonist -0.4, Insulin prom inh cell count 100.8 and HSV augment primary fold 1.08.
Screening COC(=O)c1ccc(C#Cc2ccccc2)o1 returned HSV augment inactive, RGS16-Gao 101.5 and HSV augment primary fold 1.23.
For O=C(Nc1ccc(F)cc1)c1cn(-c2ccccc2)nc1-c1ccncc1 the results were HSV augment inactive, PKD1 kinase inh -2.7, GALR2 agonist 0.2 and HSV augment primary fold 0.89.
For N/C(CN1CCCC1=O)=N\O the results were HSV augment inactive, PKD1 kinase inh -0.8, RGS16-Gao 95.9, Insulin prom inh -100.0, GALR2 agonist -4.1, Insulin prom inh cell count 84.8 and HSV augment primary fold 0.88.
`O=C(CC1C(=O)N(c2ccccc2)C(=S)N1c1ccccc1)c1ccccc1` (stereo not given) gave HSV augment inactive, PKD1 kinase inh -0.5, RGS16-Gao 99.5, GALR2 agonist 0.3 and HSV augment primary fold 0.96.
For COCCCNC(=S)NNC(=S)NCCCOC the results were HSV augment inactive, RGS16-Gao 100.7 and HSV augment primary fold 1.
`O=C(Cn1c(C(=O)NCC2CCCO2)cc2sccc21)c1ccccc1` (stereo not given) gave HSV augment inactive, PKD1 kinase inh 1.3, RGS16-Gao 105.3, Insulin prom inh -10.7, GALR2 agonist -1.8, Insulin prom inh cell count 137.6 and HSV augment primary fold 0.86.
Screening CC(C)N1CCN(Cc2ccncc2)CC1CCO (stereo not given) returned HSV augment inactive, PKD1 kinase inh -6.0, RGS16-Gao 99.8 and HSV augment primary fold 1.03.
For CCC(C)NC(=S)N1CCN(C(c2ccccc2)c2ccccc2)CC1 (stereo not given) the results were HSV augment inactive, PKD1 kinase inh 1.3, RGS16-Gao 98.3, Insulin prom inh 5.9, GALR2 agonist -0.6, Insulin prom inh cell count 103.5 and HSV augment primary fold 0.99.
For O=C(O)CCC(=O)c1ccc2ccc3cccc4ccc1c2c34 the results were HSV augment inactive, RGS16-Gao 100.5 and HSV augment primary fold 0.89.
Screening Cc1ccccc1Nc1cc2ccccc2c(=O)[nH]1 returned HSV augment inactive, PKD1 kinase inh 13.4, RGS16-Gao 101.4, Insulin prom inh 0.0, GALR2 agonist -1.8, Insulin prom inh cell count 109.6 and HSV augment primary fold 1.06.
CCC(=O)c1c(NC(C)C)cc(C)oc1=O was read as HSV augment inactive, PKD1 kinase inh -3.6, RGS16-Gao 94.9 and HSV augment primary fold 0.95.
Screening CCOC(=O)CNc1nc(C#N)nc(N2CCOCC2)n1 returned HSV augment inactive, PKD1 kinase inh -0.8, RGS16-Gao 102.5, Insulin prom inh -21.4, GALR2 agonist 0.1, Insulin prom inh cell count 102.8 and HSV augment primary fold 1.03.
Screening O=C(CN1CCc2ccccc21)NC(=O)NCc1ccccc1 returned HSV augment inactive, PKD1 kinase inh -3.0, RGS16-Gao 101.5, Insulin prom inh 38.9, Insulin prom inh cell count 80.2 and HSV augment primary fold 0.93.
CCN(CC)C(=O)CN(c1ccc(C)cc1)S(=O)(=O)c1ccc(SC)cc1 was read as HSV augment inactive, PKD1 kinase inh 6.0, RGS16-Gao 89.2, Insulin prom inh -67.6, GALR2 agonist -1.2, Insulin prom inh cell count 76.6 and HSV augment primary fold 0.96.
Screening Oc1ccc(-c2cnns2)c(O)c1 returned HSV augment inactive, PKD1 kinase inh 6.5, RGS16-Gao 33.1, Insulin prom inh -42.9, GALR2 agonist -1.5, Insulin prom inh cell count 34.3 and HSV augment primary fold 0.84.
Screening COc1ccccc1OCCSc1nc2ccccc2c(=O)[nH]1 returned HSV augment inactive, PKD1 kinase inh 0.6, RGS16-Gao 91.6, Insulin prom inh -22.9, GALR2 agonist 1.3, Insulin prom inh cell count 59.7 and HSV augment primary fold 0.92.
`CCc1ccccc1NC(=O)c1noc(C(C)C)c1[N+](=O)[O-]` gave HSV augment inactive, PKD1 kinase inh -8.4, RGS16-Gao 104.5 and HSV augment primary fold 0.91.
`CCNC(=O)NC(=O)COC(=O)c1cccc(NS(=O)(=O)/C=C/c2ccccc2)c1` gave HSV augment inactive, PKD1 kinase inh -5.7, RGS16-Gao 108.1, Insulin prom inh 17.5, GALR2 agonist -0.6, Insulin prom inh cell count 108.3 and HSV augment primary fold 1.03.
Screening Cn1c(=O)oc2cc(S(=O)(=O)NCCC(=O)NCCc3ccc(Cl)cc3)ccc21 returned HSV augment inactive, PKD1 kinase inh -5.2, RGS16-Gao 106.2, GALR2 agonist -1.7 and HSV augment primary fold 1.08.
For Cc1ccc(CN(Cc2ccco2)C(=S)Nc2ccccc2C)cc1 the results were HSV augment inactive, PKD1 kinase inh -5.3, RGS16-Gao 104.1 and HSV augment primary fold 0.87.
`O=C(c1ccccc1)c1nn(-c2ccc(Cl)cc2)cc1C(=O)c1cc2ccccc2oc1=O` gave PKD1 kinase inh 5.8, RGS16-Gao 97.3, Insulin prom inh 33.3, GALR2 agonist 1.0 and Insulin prom inh cell count 111.9.
`O=c1[nH]c(CN2CCOCC2)nc2scc(-c3ccccc3)c12` gave HSV augment inactive, PKD1 kinase inh -0.6, RGS16-Gao 97.9 and HSV augment primary fold 0.96.
CCn1cc(C(=O)OCC(=O)c2cc(C)n(-c3ccc(OC(F)F)cc3)c2C)c(=O)c2ccc(C)nc21 was read as HSV augment inactive, PKD1 kinase inh -1.9, RGS16-Gao 103.3, GALR2 agonist -1.2 and HSV augment primary fold 0.79.
Screening O=C(COC(=O)C1COc2ccccc2O1)NC(=O)Nc1ccc2c(c1)OCCO2 (stereo not given) returned HSV augment inactive, PKD1 kinase inh -6.8, RGS16-Gao 101.2, Insulin prom inh -50.0, GALR2 agonist -0.6, Insulin prom inh cell count 107.6 and HSV augment primary fold 0.9.
`C=CCN(C(=O)CNC(=O)c1ccco1)C(C(=O)NC1CCCCC1)c1ccccc1F` (stereo not given) gave HSV augment inactive, PKD1 kinase inh -4.7, RGS16-Gao 109.0, GALR2 agonist -0.2 and HSV augment primary fold 1.06.
For CCOc1cc(C2Nc3ccccc3C(=O)N2c2ccccc2)c(Br)cc1OCC(=O)O (stereo not given) the results were HSV augment inactive, PKD1 kinase inh -2.9, RGS16-Gao 98.5, Insulin prom inh 0.0, GALR2 agonist -1.2, Insulin prom inh cell count 100.2 and HSV augment primary fold 0.85.
`O=C(NC1CCCC1)C(c1ccncc1)N(C(=O)Cc1cccs1)c1ccccc1` (stereo not given) gave HSV augment inactive, PKD1 kinase inh -5.6, RGS16-Gao 107.2 and HSV augment primary fold 1.03.
Screening O=C(Nc1ccn(Cc2c(F)c(F)cc(F)c2F)n1)c1cccc(Cn2cc([N+](=O)[O-])cn2)c1 returned HSV augment inactive, PKD1 kinase inh -1.6, RGS16-Gao 95.8, Insulin prom inh 0.0, GALR2 agonist -1.6, Insulin prom inh cell count 104.5 and HSV augment primary fold 1.08.
Screening COc1cc(OC)c(C2=NOC(C(=O)NCCc3ccccc3)C2)cc1Cl (stereo not given) returned HSV augment inactive, PKD1 kinase inh -6.7, RGS16-Gao 136.8, Insulin prom inh 23.3, GALR2 agonist -0.4, Insulin prom inh cell count 155.4 and HSV augment primary fold 0.88.

Taken from the results shown (3 entries):
`O=c1[nH]c(CN2CCOCC2)nc2scc(-c3ccccc3)c12` gave HSV augment inactive, PKD1 kinase inh -0.6, RGS16-Gao 97.9 and HSV augment primary fold 0.96.
CCn1cc(C(=O)OCC(=O)c2cc(C)n(-c3ccc(OC(F)F)cc3)c2C)c(=O)c2ccc(C)nc21 was read as HSV augment inactive, PKD1 kinase inh -1.9, RGS16-Gao 103.3, GALR2 agonist -1.2 and HSV augment primary fold 0.79.
Screening O=C(COC(=O)C1COc2ccccc2O1)NC(=O)Nc1ccc2c(c1)OCCO2 (stereo not given) returned HSV augment inactive, PKD1 kinase inh -6.8, RGS16-Gao 101.2, Insulin prom inh -50.0, GALR2 agonist -0.6, Insulin prom inh cell count 107.6 and HSV augment primary fold 0.9.

(more compounds)
Screening COc1cccc(NC(=S)N2CCCC2)c1 returned HSV augment inactive, PKD1 kinase inh -5.3, RGS16-Gao 207.2, Insulin prom inh 19.4, GALR2 agonist -0.7, Insulin prom inh cell count 72.0 and HSV augment primary fold 1.12.
Screening CCn1nc(NC(=O)c2ccco2)c2cc3cc(C)ccc3nc21 returned HSV augment inactive, RGS16-Gao 95.7 and HSV augment primary fold 1.07.
For Cc1cnc([N+](=O)[O-])n1CCOC(=O)NC(=O)c1ccc(C(F)(F)F)cc1 the results were HSV augment inactive, PKD1 kinase inh 2.1, RGS16-Gao 103.9, Insulin prom inh 13.3, Insulin prom inh cell count 135.6 and HSV augment primary fold 0.93.
`O=C1CCC(/C=C/c2ccccc2)=NN1Cc1ccc(Cl)c(Cl)c1` gave HSV augment inactive, PKD1 kinase inh -4.9, RGS16-Gao 58.2, GALR2 agonist -0.8 and HSV augment primary fold 1.08.
For CCC(C)NC(=O)CCc1c(C)nc2nc(-c3cc(OC)cc(OC)c3)nn2c1C (stereo not given) the results were HSV augment inactive, PKD1 kinase inh -2.7, RGS16-Gao 90.5, Insulin prom inh 21.1, GALR2 agonist -1.9, Insulin prom inh cell count 75.5 and HSV augment primary fold 0.91.
Screening Cc1ccc2nc(C)c(C(=O)N/N=C/c3ccc(C(=O)O)cc3)cc2c1 returned HSV augment inactive, PKD1 kinase inh 0.0, RGS16-Gao 76.7 and HSV augment primary fold 0.93.
`O=C(/C(=C(/[O-])c1ccccc1)[n+]1ccccc1)c1ccc([N+](=O)[O-])cc1` gave HSV augment inactive, PKD1 kinase inh 10.8, RGS16-Gao 101.2, Insulin prom inh 3.3, GALR2 agonist -0.3, Insulin prom inh cell count 116.3 and HSV augment primary fold 1.03.
For COc1ccc(N(CC(=O)Nc2ccc3c(c2)OCO3)S(=O)(=O)c2ccccc2)c(OC)c1 the results were HSV augment inactive, PKD1 kinase inh -5.0, RGS16-Gao 102.6, Insulin prom inh 27.3, GALR2 agonist -0.6, Insulin prom inh cell count 114.4 and HSV augment primary fold 0.95.
For O=C(NC1CCS(=O)(=O)C1)N1CCCCC1 (stereo not given) the results were HSV augment inactive, PKD1 kinase inh 1.0, RGS16-Gao 101.6, Insulin prom inh -24.3, GALR2 agonist -1.3, Insulin prom inh cell count 68.5 and HSV augment primary fold 0.96.
`CCNS(=O)(=O)c1cc(Br)ccc1OC` gave HSV augment inactive, PKD1 kinase inh -11.2, RGS16-Gao 113.9, Insulin prom inh -9.1, GALR2 agonist -1.0, Insulin prom inh cell count 100.4 and HSV augment primary fold 0.69.
Cc1ccc(Nc2nc(NCCCN3CCOCC3)nc(N)c2[N+](=O)[O-])cc1C was read as HSV augment inactive, PKD1 kinase inh -0.2, RGS16-Gao 105.6, GALR2 agonist 2.0 and HSV augment primary fold 1.04.
`Cc1ccc(-c2nc3c(=O)n(C)c4ccccc4c3o2)cc1` gave HSV augment inactive, PKD1 kinase inh -17.9, RGS16-Gao 99.3, Insulin prom inh -80.0, GALR2 agonist 0.7, Insulin prom inh cell count 75.4 and HSV augment primary fold 0.86.

Screening data: PubChem BioAssay, several laboratories
